Source: PubChem
RE007 growth inh: qHTS Assay for Inhibitors of the HIV-1 protein Vpr. S. pombe RE007 Vpr strain, BacTiter-Glo ATP luminescence, 24 h; control for the full effect not named in the record. Potency, µM (highest dose often 92.2 µM), for inactives: at the top dose activity change, negative = less growth. actives 0.21% (n = 360,000). AID 651644, 2012; active = well fitted falling curve with a large enough effect; inconclusive = small, poorly fitted or top-dose-only effect; inactive = no such curve, though single readings can be large or run the other way;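 note: % is set by controls: 0 for no effect and ±100 for the full control effect; nearly all actives have a fitted effect of over 50% in size; the assay follows cell death caused by Vpr and the record does not say whether a fall means rescue or toxicity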
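Fission yeast RE007 carrying one integrated HIV-1 vpr copy, seeded at OD 0.01 in PMG+AL medium with 23 nL pinned compound. Grown 24 h at 30 degrees; viability read by BacTiter-Glo luminescence after 5 min.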
StopGo reporter: High Throughput Screening for Foot and Mouth Disease Virus Antivirals. human cells with a luciferase reporter of 2A StopGo recoding; control for the full effect not named in the record. Potency, µM (titrated, usually from 57.9 µM), inactives show at the highest dose signal change, negative = less light. actives 1.2% (n = 410,000). AID 1159524, 2015; active = well fitted falling curve with a large enough effect; inconclusive = small, poorly fitted or top-dose-only effect; inactive = no such curve, though single readings can be large or run the other way; tested in HEK293T cells; note: % is set by controls: 0 for no effect and ±100 for the full control effect; nearly all actives have a fitted effect of over 45% in size; luciferase light after 4 h
SARS PLP yeast: qHTS of Yeast-based Assay for SARS-CoV PLP. S. cerevisiae expressing SARS-CoV PLpro, growth rescue; control for the full effect not named in the record. Potency, µM (top dose mostly 32.9 µM), inactives show at the top dose activity, positive = growth rescue. actives 0.19% (n = 330,000); active means well fitted rising curve with a large enough effect; inconclusive means small, poorly fitted or top-dose-only effect; inactive means no such curve, though single readings can be large or run the other way; note: 0% is about no effect; nearly all actives have a fitted effect of over 55% in size; growth read by luminescence after 48 h
* hit, by the source's call; ? = inconclusive; [ ] = another dose, or the depositor's remark. Potency is the fitted concentration of half-maximal effect. Only part of the results is shown; the hit share may differ from the screen's.

SMILES	RE007 growth inh	StopGo reporter	SARS PLP yeast
COc1ccc(NS(=O)(=O)c2cccc(C(=O)NCCc3ccc(S(N)(=O)=O)cc3)c2)cc1	-5%	13%	2%
O=C(C[C@@H]1C/C=C\CCCC(=O)OC[C@@H](c2ccccc2)NC1=O)NCCO	-7%	-13%	-4%
C[C@H](CO)N1C[C@H](C)[C@@H](CN(C)S(C)(=O)=O)Oc2ccc(NC(=O)c3ccncc3)cc2C1=O	6%	-13%	5%
COc1ccc(C(C)=O)cc1CN1C(=O)NC(CC(C)C)C1=O (stereo not drawn)	12%	-12%	14%
Cc1cc(C)n2nc(SCC(=O)N3CCOCC3)nc2n1	-7%	-3%	-2%
COc1cccc(CN(CC(=O)NCc2ccccc2)S(=O)(=O)CCl)c1	0%	-18%	-7%
COc1ccc(CCC(=O)Nc2cccc(S(=O)(=O)N3CCCCCC3)c2)cc1OC	-1%	?	-11%
CCOc1ccccc1C(=O)NCC(=O)NNC(=O)c1cccs1	3%	-16%	1%
Cc1nc2ccc(NS(=O)(=O)c3ccccc3F)cc2s1	-1%	-10%	-1%
Cc1cc(C)n(-c2ccc(C(=O)N3CCN(S(=O)(=O)c4ccc(C(C)C)cc4)CC3)cc2)n1	1%	?	18%
COc1cccc(NC(=O)COC(=O)c2c(NC(C)=O)sc(C)c2C)c1	6%	17%	5%
C[C@@H]1COC(=O)[C@@H](NC(=O)OCC2c3ccccc3-c3ccccc32)C/C=C\C[C@@H](CC(=O)N(CCO)Cc2ccccc2)C(=O)N1	-25%	?	1%
COC(=O)C1=C(c2ccccc2OCc2ccccc2)C[C@@H]2CC[C@H]1N2C(=O)NCc1cccc(C(F)(F)F)c1	9%	-17%	-3%
COc1ccccc1NC(=O)COC(=O)COc1ccccc1F	8%	-11%	-1%
COc1ccc(NC(=O)N(C)C[C@H]2Oc3ccc(NC(=O)C4CC4)cc3C(=O)N([C@H](C)CO)C[C@@H]2C)cc1	0%	-11%	2%
O=C(COC(=O)c1ccccc1F)NCc1ccc2c(c1)OCO2	-9%	26%	-10%
COC(=O)c1nn(-c2nc(-c3ccc(OC)c(OC)c3)cc(C(F)(F)F)n2)cc1[N+](=O)[O-]	-4%	-30%	-1%
Cc1nnc(SCC(=O)NCc2ccc(F)cc2)[nH]c1=O	-9%	15%	-2%
CC(C)(CNC(=O)c1ccc(S(=O)(=O)Nc2cccc(C(F)(F)F)c2)cc1)N1CCOCC1	-27%	-7%	10%
COc1ccc(NS(=O)(=O)c2ccc(N3CCCCC3)c(N)c2)cc1	-9%	-8%	-11%
COc1ccc(-c2c(-c3cc(OC)cc(OC)c3)n(C)c3ccc(-c4ccc(S(N)(=O)=O)cc4)cc23)cc1	1%	?	-1%
CC(NC(=O)C(=O)N/N=C/c1ccccc1)c1ccccc1 (stereo not drawn)	4%	41%[activator]	2%
CCn1c(SC(C)C(=O)NC2CCCC2)nc2cc(S(N)(=O)=O)ccc21 (stereo not drawn)	6%	-14%	-5%
Cc1ccc(C(=O)CN2C(=O)NC3(CCCCC3C)C2=O)s1 (stereo not drawn)	-3%	23%	-2%

Profiles, quoted from the list:
COc1cccc(NC(=O)COC(=O)c2c(NC(C)=O)sc(C)c2C)c1 is entered as RE007 growth inh: 6%; StopGo reporter: 17%; SARS PLP yeast: 5%
C[C@H](CO)N1C[C@H](C)[C@@H](CN(C)S(C)(=O)=O)Oc2ccc(NC(=O)c3ccncc3)cc2C1=O is entered as RE007 growth inh: 6%; StopGo reporter: -13%; SARS PLP yeast: 5%

(next part)
SMILES	RE007 growth inh	StopGo reporter	SARS PLP yeast
Cn1c(N)c(C(=O)COC(=O)Cc2ccc(Cl)c(Cl)c2)c(=O)n(C)c1=O	13%	-11%	?
COCCN(C(=O)c1ccc(C#N)cc1)c1c(N)n(Cc2ccccc2)c(=O)[nH]c1=O	-5%	-3%	6%
CCN(CC)C(=O)c1[nH]cnc1C(=O)N[C@@H](C)c1ccccc1	?	15%	0%
O=C(CSc1cccc[n+]1[O-])Nc1ccc(Cl)cc1F	-6%	2%	1%
O=C(Cn1cc([N+](=O)[O-])ccc1=O)N1CCc2ccccc2C1	-25%	-5%	2%
COc1ccc(NS(=O)(=O)c2ccc(OC)c(NC(=O)CNC(=O)c3ccc(OC)cc3)c2)cc1	4%	52%[activator]	-2%
Cc1noc(C)c1COc1ccccc1C(=O)NC(C)c1ccc(Cl)cc1 (stereo not drawn)	1%	?	-3%
Cc1cccc(N2CCN(C(=O)CSc3nnnn3C3CC3)CC2)c1C	-7%	0%	-2%
O=C(NCc1ccco1)c1ccc(-c2ccc(Cl)cc2)o1	-9%	23%	-10%
O=C(C[C@@H]1C/C=C\CC[C@H](Cc2ccc(F)cc2)C(=O)OC[C@@H]2CCCN2C1=O)NCCO	-5%	-22%	-22%
CNC[C@@H]1Oc2ccc(NS(=O)(=O)c3ccc(OC)cc3)cc2CC(=O)N([C@H](C)CO)C[C@@H]1C	-12%	-3%	2%
O=C(COc1ccccc1)Nc1nc(-c2cccnc2)cs1	2%	-14%	0%
NS(=O)(=O)c1ccc(NC(=O)CSc2nnc3n2CCCCC3)cc1	8%	-8%	-1%
Clc1ccccc1Nc1nc2ccccc2o1	?	14%	0%
O=C(c1ccco1)N1CCN(Cc2cc(=O)oc3cc(O)ccc23)CC1	-11%	-11%	0%
COc1cccc(NC(=O)CN(C)C(C)C(=O)NC(=O)NC2CCCCC2)c1 (stereo not drawn)	-1%	-24%	-1%
O=C(CSc1nnc(C2CC2)n1C1CC1)c1ccc(F)c(F)c1	1%	22%	7%
CC(=O)c1c(C)nc(-c2ccc(OCC(=O)Nc3cccc(C)c3C)cc2)n1O	12%	-10%	-3%
Cc1ccc(NC(=O)CSc2nnc(C)n2C2CC2)cc1S(=O)(=O)N1CCOCC1	-8%	3%	2%
Cc1ccc(C(=O)C(C)[n+]2cccc(C(N)=O)c2)cc1 (stereo not drawn)	0%	-18%	4%
c1ccc(CSc2nnc3ccc(-c4cccs4)nn23)nc1	2%	0%	-12%
CCN1CCN(c2ccc(NC(=O)CCc3c(C)nc4c(-c5ccc(F)cc5)c(C)nn4c3C)cc2)CC1	-4%	-26%	3%
CCN(CC)C(=O)[C@H]1C[C@H](CC(=O)NCCN2CCOCC2)C(=O)N2CCc3c([nH]c4cc(-c5ccco5)ccc34)[C@]12C	3%	-6%	9%
Cc1ccc(NC(=O)CN2C(=O)NC3(CCCC3)C2=O)cc1S(=O)(=O)N1CCCCC1	-4%	-5%	-4%

Copied from the list.
Reading for `O=C(c1ccco1)N1CCN(Cc2cc(=O)oc3cc(O)ccc23)CC1` in RE007 growth inh: -11%
Reading for `Cc1ccc(NC(=O)CN2C(=O)NC3(CCCC3)C2=O)cc1S(=O)(=O)N1CCCCC1` in StopGo reporter: -5%
Reading for `c1ccc(CSc2nnc3ccc(-c4cccs4)nn23)nc1` in SARS PLP yeast: -12%
Reading for `CC(=O)c1c(C)nc(-c2ccc(OCC(=O)Nc3cccc(C)c3C)cc2)n1O` in SARS PLP yeast: -3%
Reading for `CCN(CC)C(=O)[C@H]1C[C@H](CC(=O)NCCN2CCOCC2)C(=O)N2CCc3c([nH]c4cc(-c5ccco5)ccc34)[C@]12C` in RE007 growth inh: 3%

Additional entries.
SMILES	RE007 growth inh	StopGo reporter	SARS PLP yeast
O=C(COC(=O)c1ccccc1NCCO)NCC1CCCCC1	5%	-7%	-5%
CCC(C)Sc1ccc([C@H]2N[C@@](C)(C(=O)OC)[C@H]3C(=O)N(C)C(=O)[C@@H]23)cc1OC (stereo partly drawn)	8%	-16%	-4%
O=C(CNC(=O)c1ccccc1F)NCc1ccccn1	3%	12%	-1%
CC1CCCCC1NC(=O)COC(=O)c1ccc2ncsc2c1 (stereo not drawn)	1%	-8%	-7%
Cc1ccc(C(=O)CSc2nnc3n2CCCCC3)s1	10%	71%[activator]	-8%
CN(CC(=O)Nc1ccc(Cl)cc1)C(=O)c1sccc1-c1ccccc1	1%	?	-13%
CCCCn1c(=O)c(CCC(=O)OCC(=O)NC(=O)NCCC(C)C)nc2ccccc21	5%	-9%	2%
CC1CCN(c2ccc3c(c2)S(=O)(=O)c2cccc(C(=O)O)c2C3=O)CC1	3%	39%[activator]	3%
CCN(C(=O)COc1ccc(F)cc1Br)c1c(N)n(Cc2ccccc2)c(=O)[nH]c1=O	-11%	-15%	0%
N#CCCN(C(=O)COC(=O)c1ccc2ccccc2n1)c1ccccc1	2%	-12%	2%
Cc1ccc(C)c(N2CCN(C(=S)Nc3ccc4nc(N5CCN(C)CC5)cc(C)c4c3)CC2)c1	-17%	?	-4%
O=C(OCC(=O)c1ccc(Br)s1)c1ccc(O)cc1	5%	46%[activator]	-5%
CCN1C(=O)[C@H]2[C@H]3CN=C(SCc4ccc(Cl)cc4)N3[C@@](Cc3ccccc3)(C(=O)OC)[C@H]2C1=O	-9%	?	-44%
Cc1ccc(C(=O)NC(=S)N2CCCCCC2)cc1	-19%	19%	-8%
COc1ccccc1C(=O)NCC(=O)OC(C)C(=O)N(C)C1CCCCC1 (stereo not drawn)	2%	-5%	3%
O=C(OCC(=O)N(C1CCCCC1)C1CCCCC1)c1ccc(Cl)nc1	-2%	-18%	-14%
CCN(C[C@H]1N[C@@](CC)(C(=O)OC)[C@H]2C(=O)N(C)C(=O)[C@@H]12)C(=O)Nc1ccc(OC)cc1	0%	2%	1%
CCC(C)Sc1ccc(-c2nc3ccc(Cl)cn3c2NCc2ccccc2)cc1 (stereo not drawn)	18%	40%[activator]	6%
CC12CCC(=O)N1C(C(=O)N1CCN(c3cccc(Cl)c3)CC1)CS2 (stereo not drawn)	10%	-22%	0%
COC(=O)CSCC(=O)Nc1nnc(-c2ccccc2C)s1	-11%	12%	-3%
CSCCC(NC(=O)c1ccccc1Br)C(=O)NNC(=O)c1cc(C)oc1C (stereo not drawn)	-4%	-23%	1%
Cc1c(Cl)cc(-n2cnnn2)cc1[N+](=O)[O-]	7%	-4%	-1%
O=C1N[C@@H](c2ccccc2)COC(=O)[C@H](Cc2ccc(F)cc2)C/C=C\C[C@@H]1CC(=O)N(CCO)Cc1ccccc1	-9%	?	1%
COc1ccc(NS(=O)(=O)c2cccc(C(=O)N3CCN(C(=O)c4ccco4)CC3)c2)cc1	7%	-30%	-3%
Clc1ccc(C#Cc2cccnc2)cc1	26%	48%[activator]	-3%
O=C(/C=C/c1ccc(S(=O)(=O)N2CCOCC2)cc1)N(CCO)Cc1ccccc1	-11%	-12%	-1%
CCN(C[C@H]1N[C@@](Cc2ccccc2)(C(=O)OC)[C@H]2C(=O)N(C)C(=O)[C@@H]12)S(=O)(=O)c1ccc(OC)cc1	0%	?	-4%
CCCCN(C(=O)C1CCCC1)c1c(N)n(CC(C)C)c(=O)[nH]c1=O	-5%	-14%	4%
CSc1ncccc1C(=O)Nc1ccc(S(=O)(=O)N2CCCC2)cc1	-1%	-23%	-1%
Cc1cccc(OCC(=O)NCc2nnc3ccc(C(F)(F)F)cn23)c1C	-3%	-9%	-2%
O=C(COC(=O)c1ccc(F)cc1Cl)NC(=O)NC1CCCC1	2%	-3%	0%
O=C(COC(=O)Cn1cnc2ccccc21)Nc1ccc(OC(F)F)cc1	1%	-4%	-1%
O=C(COC(=O)c1ccc(S(=O)(=O)N2CCCC2)cc1)NCCc1ccc(F)cc1	-1%	-8%	-11%
Cc1cccc(NC(=O)[C@@H]2CCCN2S(=O)(=O)c2ccc(Cl)cc2)c1	8%	-29%	-9%
CCOc1ccc(-n2c(=O)c3c4c(sc3n(CC(=O)NCC3CCCO3)c2=O)CCCC4)cc1 (stereo not drawn)	23%	-8%	3%
Cc1ccc(NC(=O)Cc2nc(-c3c[nH]c(C(=O)N4CCCC4)c3)cs2)c(C)c1	3%	-29%	1%
Cc1ccc(C(=O)Nc2nc(-c3ccccn3)cs2)cc1S(=O)(=O)N1CCOCC1	9%	?	-6%
CN1C(=O)C(=Cc2ccc(OCCN(C)c3ccccn3)cc2)C(=O)N(C)C1=O	1%	6%	0%
CCc1nnc(NS(=O)(=O)c2ccc(NC(=O)c3ccccc3C)cc2)s1	10%	-6%	-1%
O=C(CCNS(=O)(=O)c1ccc(Br)cc1)NC1CCC(O)CC1 (stereo not drawn)	17%	-21%	1%[6.58 µM]
O=S(=O)(c1ccc(NCCOCCO)nc1)N1CCCCC1	-8%	-14%	6%
CCN(c1ccccc1)S(=O)(=O)c1ccc(C(=O)N2CCOCC2)cc1	2%	-12%	0%
COc1ccc(Cl)cc1NC(=O)CN(C)CC(=O)N(CC(C)C)c1c(N)n(CC(C)C)c(=O)[nH]c1=O	0%	-5%	2%
CN(C(=O)C1CCCN1S(=O)(=O)c1ccc(Cl)cc1)c1ccccc1 (stereo not drawn)	-10%	4%	1%
CC(C)[C@H](CN1CCC[C@H]1CN1C(N)=NC[C@H]1C(C)C)N1C[C@@H](Cc2ccccc2)N(CCCC2CCCC2)C1=N	-7%	-9%	0%
Cc1noc(C)c1COc1ccccc1C(=O)Nc1ccc(C(N)=O)cc1	0%	-3%	-13%
O=[N+]([O-])c1ccccc1S(=O)(=O)Nc1cccc(S(=O)(=O)N2CCCC2)c1	2%	37%[activator]	1%
